Fam108B inh – mouse Fam108B serine hydrolase inhibitors, primary screen, counter-screen for RBBP9 inhibitor project, biochemical, fluorescence polarization; inhibition, % at 9.51 µM; AID 1947, 2009; recombinant Fam108B, FP-Rh probe fluorescence polarization; 0.33% of 300,000 active;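 active = inhibition above the screen mean inhibition plus 3 SD, computed separately per campaign, cut at about 18% in these data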;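 also: inhibitors lower polarization as less probe binds the enzyme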
PAD4 inh – human PAD4 inhibitors, primary screen, biochemical, fluorescence polarization, 1536-well format; 0.41% of 330,000 active; Protein-arginine deiminase type-4 (Homo sapiens), Q9UM07; recombinant PAD4, RCA probe fluorescence polarization; inhibition, % at 6.36 µM;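 active = percent inhibition above a cutoff equal to the mean of all tested compounds plus 3 SD, cut at about 15% in these data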;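 also: 0% = PAD4 with RCA probe and DMSO and 100% = probe without PAD4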
Target sequence (Q9UM07 whole entry, looked up): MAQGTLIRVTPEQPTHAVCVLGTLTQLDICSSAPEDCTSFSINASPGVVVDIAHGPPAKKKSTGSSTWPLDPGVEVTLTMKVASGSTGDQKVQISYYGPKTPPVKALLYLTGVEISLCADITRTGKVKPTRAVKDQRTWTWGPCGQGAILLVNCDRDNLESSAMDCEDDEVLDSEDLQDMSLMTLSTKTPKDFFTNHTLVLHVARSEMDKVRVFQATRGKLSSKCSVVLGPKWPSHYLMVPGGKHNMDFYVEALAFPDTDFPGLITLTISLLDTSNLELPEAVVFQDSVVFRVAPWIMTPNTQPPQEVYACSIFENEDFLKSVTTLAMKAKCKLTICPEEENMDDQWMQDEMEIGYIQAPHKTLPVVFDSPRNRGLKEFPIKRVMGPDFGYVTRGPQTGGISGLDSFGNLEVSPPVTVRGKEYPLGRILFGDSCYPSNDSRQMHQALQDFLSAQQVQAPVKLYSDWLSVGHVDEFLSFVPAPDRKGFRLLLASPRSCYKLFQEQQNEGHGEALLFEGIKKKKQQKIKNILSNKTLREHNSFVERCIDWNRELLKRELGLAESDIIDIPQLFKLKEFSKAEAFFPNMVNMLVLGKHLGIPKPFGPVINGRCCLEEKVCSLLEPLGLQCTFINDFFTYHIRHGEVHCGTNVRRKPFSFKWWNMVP
PAFAH1B3 inh – PAFAH1B3 enzyme inhibitors, primary screen, biochemical, fluorescence polarization, human; recombinant PAFAH1B3, FP-rhodamine probe; inhibition, % at 3.39 µM; 0.28% of 340,000 active; AID 492972, 2010;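 active = inhibition above the screen-wide average of all tested compounds plus 3 SD, cut at about 25% in these data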;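 also: 0% = enzyme with DMSO only and 100% = wells lacking PAFAH1B3 protein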
Target sequence (Q15102 whole entry, looked up): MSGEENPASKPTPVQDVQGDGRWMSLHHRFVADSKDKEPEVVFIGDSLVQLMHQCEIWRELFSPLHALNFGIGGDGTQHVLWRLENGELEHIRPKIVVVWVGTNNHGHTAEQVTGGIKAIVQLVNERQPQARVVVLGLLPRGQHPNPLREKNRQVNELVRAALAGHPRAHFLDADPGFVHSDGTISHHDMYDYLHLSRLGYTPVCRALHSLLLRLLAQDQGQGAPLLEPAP
PME-1 inh – PME-1 inhibitors via competitive probe labeling, primary screen, biochemical, fluorescence polarization, FP-Rh probe, HTS; Protein phosphatase methylesterase 1 (Homo sapiens), Q9Y570; recombinant PME-1; inhibition, % at 5.9 µM; 0.53% of 320,000 active; AID 2130, 2009;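 active = inhibition above the campaign mean of all compounds plus 3 SD, cut at about 26% in these data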;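 also: competitive labeling of PME-1 active site by serine hydrolase directed probe; 0% = PME-1 with DMSO and 100% = wells lacking PME-1 enzyme; inhibitors block probe labeling so polarization falls and inhibition rises; many of its hits are not listed in these tables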
GSTO1 inh – inhibitors of recombinant GSTO1, primary screen, counter-screen for RBBP9 inhibitor project, biochemical, fluorescence polarization; activity-based probe fluorescence polarization; AID 1974, 2009; 1.1% of 300,000 active; inhibition, % at 5.96 µM; Glutathione S-transferase omega-1 (Homo sapiens), P78417;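 active = inhibition above the campaign mean inhibition plus 3 SD, cut at about 35% in these data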;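 also: 0% = GSTO1-1 with DMSO and 100% = wells lacking GSTO1-1 enzyme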
PAFAH2 inh – PAFAH2 enzyme inhibitors, primary screen, biochemical, fluorescence polarization, human; AID 492956, 2010; inhibition, % at 3.39 µM; 0.99% of 340,000 active; recombinant PAFAH2, FP-rhodamine activity probe;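 active = inhibition above the mean over all tested compounds plus 3 SD, cut at about 30% in these data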;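 also: inhibitors block probe labeling of enzyme so polarization drops; 0% = enzyme with DMSO and 100% = wells lacking PAFAH2 protein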
PAFAH1B2 FP inh – PAFAH1B2 enzyme inhibitors, primary screen, biochemical, fluorescence polarization, human; Platelet-activating factor acetylhydrolase IB subunit alpha2 (Homo sapiens), P68402; recombinant PAFAH1B2, FP-rhodamine activity probe; inhibition, % at 3.39 µM; 1.2% of 340,000 active; AID 492953, 2010;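 active = inhibition above the mean of all tested compounds plus 3 SD, cut at about 24% in these data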;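 also: 0% = enzyme with DMSO and 100% = wells lacking PAFAH1B2; many of its hits are not listed in these tables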
Target sequence (P68402 whole entry, looked up): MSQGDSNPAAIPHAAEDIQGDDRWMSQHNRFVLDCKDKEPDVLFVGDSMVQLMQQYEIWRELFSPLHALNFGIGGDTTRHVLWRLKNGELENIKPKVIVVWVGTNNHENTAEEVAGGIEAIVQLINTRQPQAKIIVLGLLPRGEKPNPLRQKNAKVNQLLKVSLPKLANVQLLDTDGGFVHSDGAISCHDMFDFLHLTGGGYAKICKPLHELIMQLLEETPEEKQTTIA
LYPLA1 inh – LYPLA1 inhibitors, primary screen, counter-screen for PME1 inhibitor project, biochemical, fluorescence polarization, FP-Rh probe ABPP; Acyl-protein thioesterase 1 (Homo sapiens), O75608; recombinant LYPLA1; inhibition, % at 5.9 µM; 0.16% of 320,000 active; AID 2174, 2009;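 active = inhibition above the mean of all tested compounds plus 3 SD, set per campaign, cut at about 14% in these data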;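 also: inhibitors block serine hydrolase probe labeling of LYPLA1 so polarization falls; 0% = enzyme with DMSO and 100% = wells lacking LYPLA1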
* marks the source's active call; other numbers are inactive results; . = not tested or not shown. These rows are one share of the data, so the mix of outcomes need not match the whole.

SMILES | Fam108B inh | PAD4 inh | PAFAH1B3 inh | PME-1 inh | GSTO1 inh | PAFAH2 inh | PAFAH1B2 FP inh | LYPLA1 inh
CN(Cc1ccccc1)S(=O)(=O)c1ccc(OCC(=O)NCc2cccnc2)cc1 | 4 | 1 | 9 | -2 | 6 | -3 | 4 | -2
CCOc1ccc(NS(=O)(=O)c2ccc(OC)c(C)c2)cc1 | 3 | 1 | 4 | 5 | 11 | 3 | 4 | -5
CCOC(=O)C1CCN(C(=O)/C=C/c2ccc3c(c2)OCO3)CC1 | 0 | -1 | 9 | 0 | 10 | -1 | 0 | 4
CCN(Cc1ccccc1)C(=O)c1cc2c(OC)c(OC)c(OC)cc2[nH]1 | 9 | -4 | 4 | -3 | 10 | -5 | 5 | -2
CC1CCCN(c2ccc(C(=O)OCn3nnc4ccccc4c3=O)cc2[N+](=O)[O-])C1 (configuration not stated) | -4 | -3 | -5 | -2 | -1 | 3 | -5 | -2
Cc1nn(-c2ccccc2)c(C)c1NC(=O)COC(=O)c1cc(Cl)ccc1O | -1 | 3 | 4 | 2 | 1 | 7 | 6 | 4
CCc1cc(=O)oc2c3c(cc(OCC(=O)Nc4cccnc4)c12)OC(C)(C)CC3 | -3 | 1 | 1 | -5 | -4 | 30 | 3 | -6
Cc1cccc(CS(=O)(=O)Cc2ccc(C(=O)NCc3cccs3)o2)c1 | -3 | -4 | 3 | -10 | -2 | 2 | 4 | 0
Cc1cc2c(ncn2Cc2ccccc2)c(NS(C)(=O)=O)c1C | -5 | -2 | 4 | 4 | -3 | 9 | 2 | 1
O=C(COC(=O)CNS(=O)(=O)c1ccc(F)c(F)c1F)Nc1ccc(OC(F)F)cc1 | 7 | 0 | 3 | 0 | 5 | -2 | 1 | -3
C=CCn1c(SCc2ccc(Br)cc2F)nc2cc(C(=O)O)ccc2c1=O | -5 | -4 | 4 | 0 | -12 | 5 | 3 | -1
Cc1cc(C)c(C#N)c(SCCS(=O)(=O)Cc2ccc(Cl)cc2)n1 | -2 | -1 | 2 | 7 | 5 | -2 | 2 | 1
Cc1cc(C)n(CC(O)Cn2c3ccc(Cl)cc3c3cc(Cl)ccc32)c(=O)n1 (configuration not stated) | -8 | -5 | 4 | -18 | -3 | -2 | 2 | -14
COc1ccc(NS(=O)(=O)c2cccc(C(=O)NNC(=O)CNC(=O)c3ccccc3F)c2)cc1 | -1 | 3 | 2 | -3 | 6 | 4 | 6 | 2
O=C(Nc1ccccc1C(=O)O)c1cccc(S(=O)(=O)Nc2ccc(Br)cc2)c1 | -13 | -8 | -1 | -24 | -23 | -38 | 2 | -11
O=C(O)c1ccccc1NC(=O)c1ccccc1Nc1ccccc1 | 9 | 3 | 2 | 12 | -86 | 10 | 4 | 1
CSc1ccc(NC(=O)CSc2nc3[nH]c(=O)cc(O)c3s2)cc1 | . | -9 | 10 | -17 | . | 8 | -1 | -23
COCc1cc(=O)n2[nH]c(SCc3ccccc3)nc2n1 | 2 | 1 | -4 | 0 | 0 | 35* | 6 | -2
CN(C)C(=O)COC(=O)c1cccc(S(=O)(=O)Nc2ccc(OCc3ccccc3)cc2)c1 | 3 | 0 | -5 | 4 | 10 | 2 | 10 | 1
C=CCNC(=O)NC(=O)COC(=O)CNS(=O)(=O)c1ccc(F)c(F)c1F | 0 | -2 | 2 | 2 | 13 | 3 | 2 | -2
O=C(CCC1CCCN(C(=O)c2ccc(F)c(F)c2)C1)N1CCN(c2ccccn2)CC1 (configuration not stated) | 0 | 0 | -3 | 3 | 3 | 3 | -6 | -1
CCCC(NC(=O)COc1cc2c(c3oc(=O)c(C)c(C)c13)CCC(C)(C)O2)C(=O)O (configuration not stated) | 5 | 4 | -1 | 4 | 1 | 72* | 15 | -2
O=S(=O)(Nc1ccc(Cl)cc1)c1ccc(N2CCOCC2)c(NC(=S)NC2CC2)c1 | 4 | -2 | 4 | 8 | 2 | 7 | 6 | 5
O=C(COC(=O)c1ccc([N+](=O)[O-])s1)Nc1cccc(S(=O)(=O)NC2=NCCCCC2)c1 | 5 | -13 | 23 | -3 | 27 | 28 | 16 | 2
Fc1cccc(Cl)c1Cn1nnc(-c2ccc3c(c2)OCO3)n1 | -4 | 2 | -1 | -4 | 4 | 4 | 6 | -5
Other entries follow:
SMILES | Fam108B inh | PAD4 inh | PAFAH1B3 inh | PME-1 inh | GSTO1 inh | PAFAH2 inh | PAFAH1B2 FP inh | LYPLA1 inh
CCOC(=O)c1cc(CC)sc1NC(=O)CN1CCN(C(=O)c2ccco2)CC1 | 2 | -3 | 6 | 9 | -6 | 7 | -3 | -2
O=C(O)c1cc(Nc2cc(Cl)c3nonc3c2[N+](=O)[O-])ccc1O | 0 | 6 | 7 | -1 | 36* | 10 | 10 | -2
Cc1nc2c(C(=O)NCc3ccc4c(c3)OCO4)c[nH]n2c(=O)c1Cc1ccccc1F | 12 | -2 | 8 | 15 | -32 | 20 | 4 | -1
Cc1ccc(NS(=O)(=O)c2cccc(C(=O)NNC(=O)NC3CCCCC3)c2)c(C)c1 | 1 | -3 | 6 | 1 | -6 | -6 | 5 | 1
N#CC1=C(SCc2ccccc2)NC(=O)CC1c1cccc(O)c1 (configuration not stated) | 6 | 0 | -1 | 1 | -1 | 1 | 3 | 2
CCCS(=O)(=O)N1CCN(C(=O)COc2ccc(-c3ccccc3)cc2)CC1 | 3 | -4 | 5 | 4 | 6 | -1 | 5 | 2
CC1CCCC(NC(=O)COC(=O)c2ccc(N(C)C)cc2)C1C (configuration not stated) | 1 | 3 | 1 | 2 | 7 | 82* | 4 | -3
CC(C)Oc1cccc(C(=O)NC(=S)Nc2ccc3c4c(cccc24)CC3)c1 | -4 | -1 | -4 | -1 | 1 | -9 | -4 | 1
CC(NC(=O)c1cc(S(=O)(=O)N(C)C)ccc1Cl)C1CC2CCC1C2 (configuration not stated) | -1 | -2 | -2 | -1 | -4 | 4 | 8 | -2
CCCCc1cc(=O)oc2c3c(cc(OCC(=O)NCCCO)c12)OC(C)(C)CC3 | -4 | 0 | -2 | 0 | 3 | 43* | 8 | 2
CCN(CC(=O)NCc1cccs1)C(=O)c1ccc(S(=O)(=O)Nc2ccccc2)cc1 | 3 | 0 | 3 | 6 | 6 | 9 | 0 | 3
CN(CC(=O)Nc1ccc(Cl)cc1)C(=O)c1ccc(S(=O)(=O)Nc2ccccc2)cc1 | 1 | 2 | 0 | 2 | 2 | -3 | -5 | -2
Cc1ccc(OCC(=O)N2CCN(S(=O)(=O)c3ccc(Cl)s3)CC2)cc1C | . | 2 | 3 | 6 | . | 6 | 4 | -2
CCOc1ccc(NS(=O)(=O)c2ccc(C(=O)N3CCCCC3)cc2)cc1 | 2 | -2 | 7 | 1 | 10 | -4 | -7 | -5
COc1ccc(/C=N/NC(=O)c2[nH]c3ccc(Br)cc3c2-c2ccccc2)c(C(=O)O)c1OC | -7 | -1 | 4 | -10 | -8 | 21 | 8 | -11
O=C(/C=C/c1ccc(F)cc1)NCc1ccco1 | 4 | -1 | 9 | -2 | -1 | 0 | 1 | 1
COc1ccc(NS(=O)(=O)c2cccc(C(=O)NC3CCN(Cc4ccccc4)CC3)c2)cc1 | -4 | -2 | 0 | -1 | 1 | 2 | 4 | 2
CN(Cc1ccccc1)S(=O)(=O)c1ccc(OCC(=O)NCc2ccncc2)cc1 | 0 | -4 | -6 | 1 | 7 | 4 | 0 | 0
COc1ccc(CN2C[C@H](Cc3ccccc3)[C@@H](CC(=O)Nc3ccccc3)C2=O)cc1 | -1 | 4 | 13 | 2 | -11 | 6 | -3 | -2
COc1ccc(OC)c(C(=O)c2nc3c(n2O)CCCCC3)c1 | 8 | 2 | 6 | 2 | 0 | 4 | 3 | 1
COc1ccc(NS(=O)(=O)c2ccc(N3CCOCC3)c(NC(=O)c3ccc(OC)cc3)c2)cc1 | -3 | 1 | 2 | 5 | 4 | 2 | 2 | -4
CCOc1ccc(NS(=O)(=O)c2ccc(NC(=O)c3cccnc3)c(OC)c2)cc1 | 2 | -3 | 1 | 4 | 9 | 5 | 1 | 0
COc1ccc(-c2noc(CSc3nnc(Cc4ccccc4)n3-c3ccc(Cl)cc3)n2)cc1 | 1 | -3 | -6 | 5 | 4 | 0 | 1 | -6
O=S(=O)(NCCSCc1ccc(Cl)c(Cl)c1)c1ccc2c(c1)OCCO2 | -28 | 3 | -9 | -32 | 25 | 4 | 4 | -25
Cc1c(F)cccc1NS(=O)(=O)c1ccc(OCCNS(C)(=O)=O)cc1 | 2 | 0 | 9 | 1 | -3 | 10 | 1 | -1
Following part:
SMILES | Fam108B inh | PAD4 inh | PAFAH1B3 inh | PME-1 inh | GSTO1 inh | PAFAH2 inh | PAFAH1B2 FP inh | LYPLA1 inh
Cc1nn(-c2ccccc2)c(C)c1NC(=O)COc1ccc(Br)cc1Cl | 3 | 0 | 5 | 0 | -1 | 0 | 13 | 1
CCN(CC)CCNC(=O)c1ccc(NC(=O)c2cccc(S(=O)(=O)Nc3ccc(C)cc3)c2)cc1 | -6 | -4 | -7 | -5 | -8 | 0 | 1 | -8
CCOC(=O)CCCNC(=O)COC(=O)/C=C/c1ccc2c(c1)OCO2 | 4 | 3 | 5 | 5 | -5 | 11 | -1 | 6
O=[N+]([O-])c1cc(S(=O)(=O)Nc2ccccc2)ccc1N1CCN(c2ccccc2)CC1 | 0 | -1 | 5 | 3 | -5 | 7 | -2 | -7
CC(=O)Nc1ccc(S(=O)(=O)Nc2ccc3c(c2)CCC3)cc1 | 0 | 3 | 0 | 3 | 35* | 3 | 2 | 0
O=C(NCc1ccccc1)c1ccc(CS(=O)(=O)Cc2ccc(F)cc2)o1 | 1 | -5 | 7 | -3 | 7 | 8 | 6 | 3
CCc1cc2c(=O)oc(-c3ccccc3F)nc2s1 | -11 | 8 | 1 | -26 | -12 | 72* | 0 | -13
CC1CC1C(=O)OCC(=O)NNC(=O)COc1ccc(Br)cc1 (configuration not stated) | -7 | -4 | 5 | 0 | -2 | 17 | 9 | -1
COc1ccc(C(=O)c2nc3c(n2O)CCCC3)cc1OC | -1 | -4 | 3 | 0 | 0 | -4 | 0 | 3
Cc1ccc(S(=O)(=O)N2CCC(=O)N(CCOCc3ccc(F)cc3)CC2)cc1 | -1 | -1 | -5 | 0 | 6 | 2 | 18 | 1
CCCCCc1nc2c(=O)n(C)c3ccccc3c2o1 | 0 | 2 | -5 | 5 | 7 | 14 | 1 | -1
CSc1ccc(S(=O)(=O)Nc2ccc(S(=O)(=O)Nc3ccc(C)cc3)cc2)cc1 | -1 | 4 | -1 | -1 | 1 | 0 | 2 | -5
Cc1cc(C)n(CC(O)Cn2c3ccc(Br)cc3c3cc(Br)ccc32)c(=O)n1 (configuration not stated) | -13 | -1 | 2 | -27 | -8 | 1 | -7 | -16
COC(C(=O)Nc1ccc(S(=O)(=O)Nc2ccc(F)cc2)cc1)c1ccccc1 (configuration not stated) | 1 | 1 | -3 | -5 | 1 | -3 | 15 | -4
O=C(NCCCN1CCCC1=O)c1cccc(S(=O)(=O)Nc2ccc(Br)cc2)c1 | -1 | -3 | 1 | 2 | 4 | -2 | 2 | -1
COc1ccc(NC(=O)CSc2nc3ccccc3c(=O)n2Cc2cccs2)c(OC)c1 | -4 | -1 | . | -1 | -1 | . | . | -1
COc1ccc(NS(=O)(=O)c2ccc(NC(=O)CCNS(=O)(=O)c3ccc(C)cc3)cc2)cc1 | 5 | 5 | 4 | 1 | 4 | 1 | 18 | -10
Cc1ccc(NC(=O)C(C)C(=O)Nc2ccc(C)cc2)cc1 | 5 | -4 | . | 0 | 7 | . | . | 1
